# TROY NFkB inh: inhibitors of TROY-dependent NF-kB signaling. Q293 LMP1-TROYcd NF-kB luciferase reporter, 4 h. inhibition, % at 10 µM. actives 0.98% (n = 360,000). AID 1347056;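 active = compounds whose plate-normalised and pattern-corrected inhibition of the luciferase reporter signal at the single screening dose is 50% or more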
# TRAIL sens C8: caspase-8 TRAIL sensitization. NB7+C8 cells + TRAIL, ATPlite viability luminescence. inhibition (viability loss, TRAIL sensitization), % at 10 µM. actives 1% (n = 360,000). AID 624354;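 active = compounds causing at least 50% loss of cell viability in the single-dose screen, relative to plate controls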
# TLR9-MyD88 block: blocks human TLR9 binding to MyD88 | actives 0.21% (n = 340,000) | inhibition, % at 4.98 µM | CHO BLA complementation TLR9-MyD88, CCF4 FRET ratio;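 active = inhibition above the mean over all tested compounds plus 3 SD, cut at about 21% in these data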;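 also: 0% = DMSO only wells and 100% = clavulanate BLA inhibitor control wells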
# NOD2-RIPK2 inh: blocks binding of human NOD2 to RIPK2; O43353; CHO BLA complementation NOD2-RIPK2, CCF4 ratio; inhibition, % at 4.98 µM; actives 0.38% (n = 360,000); AID 624267; in the data active = inhibition above about 21%;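 also: 0% = vehicle only and 100% = reference blocker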
# Target sequence (O43353 whole entry, looked up): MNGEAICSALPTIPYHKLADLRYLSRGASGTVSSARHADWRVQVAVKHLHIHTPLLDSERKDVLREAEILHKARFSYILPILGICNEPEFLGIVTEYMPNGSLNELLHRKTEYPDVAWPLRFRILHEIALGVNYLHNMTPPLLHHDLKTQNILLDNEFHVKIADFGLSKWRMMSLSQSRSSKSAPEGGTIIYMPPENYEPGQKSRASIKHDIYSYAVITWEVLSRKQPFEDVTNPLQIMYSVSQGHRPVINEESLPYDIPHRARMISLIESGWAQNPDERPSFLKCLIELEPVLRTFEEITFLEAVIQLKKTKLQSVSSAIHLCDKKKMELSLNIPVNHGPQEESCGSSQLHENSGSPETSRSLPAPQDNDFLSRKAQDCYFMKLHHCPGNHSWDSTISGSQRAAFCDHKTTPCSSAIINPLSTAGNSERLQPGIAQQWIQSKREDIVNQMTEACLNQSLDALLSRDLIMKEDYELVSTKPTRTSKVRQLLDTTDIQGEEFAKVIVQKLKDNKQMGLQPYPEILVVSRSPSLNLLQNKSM
# The depositor's hits bear a star; . = no result given; & = joins results of further samples. Not all compounds are listed; the hit share may differ from the screen's.
# Short keys: A = TROY NFkB inh; B = TRAIL sens C8; C = TLR9-MyD88 block; D = NOD2-RIPK2 inh
O=C(CCCN1CC=C(n2c(=O)[nH]c3ccccc32)CC1)c1ccc(F)cc1
  A: -28	B: 3	C: 7	D: -6
CCC(C)(C)C(=O)O[C@H]1C[C@@H](C)C=C2C=C[C@H](C)[C@H](CC[C@@H]3C[C@@H](O)CC(=O)O3)[C@H]21
  A: -17	B: 4	C: 8	D: -3
CN1[C@@H]2CC(OC(=O)[C@H](CO)c3ccccc3)C[C@H]1[C@@H]1O[C@@H]12 (stereo not given in full)
  A: 1&-6&-6&-5	B: -7&-8&4&-4	C: -4&-12&-10&-4	D: 3&-5&-15&-11
CCn1cc(C(=O)O)c(=O)c2ccc(C)nc21
  A: 3	B: 33	C: -3	D: 8
O=C(c1ccccc1)c1ccccc1
  A: 14	B: -5	C: -9	D: -3
CN(C)CCOC(c1ccccc1)c1ccccc1 (tested in a mixture with another compound)
  A: 2	B: -4	C: -2	D: 3
CN(C)c1ccnc2sc(C(N)=O)c(N)c12
  A: -21	B: 39	C: 1	D: -23
CCn1nc(C(=O)O)c(=O)c2cc3c(cc21)OCO3
  A: 1	B: 2	C: 2	D: 2
Cc1nn2cc(-c3ccc(Cl)cc3)nc2s1
  A: -5	B: 19	C: -4	D: -15
NC(=O)c1csc(C2OC(CO)C(O)C2O)n1 (stereo not given)
  A: -8	B: -15	C: .	D: -3
C[N+]1(C)CC[C@H](OC(=O)[C@@](O)(c2ccccc2)C2CCCC2)C1
  A: 5	B: 9	C: -3	D: -21
OCCN(CCO)c1nc(N2CCCCC2)c2nc(N(CCO)CCO)nc(N3CCCCC3)c2n1
  A: -13	B: 10	C: 25*	D: 36*

# Random excerpt: 5 records from the list.
# Short keys: A = TROY NFkB inh; B = TRAIL sens C8; C = TLR9-MyD88 block; D = NOD2-RIPK2 inh
C[N+]1(C)CC[C@H](OC(=O)[C@@](O)(c2ccccc2)C2CCCC2)C1
  A: 5	B: 9	C: -3	D: -21
CCn1cc(C(=O)O)c(=O)c2ccc(C)nc21
  A: 3	B: 33	C: -3	D: 8
OCCN(CCO)c1nc(N2CCCCC2)c2nc(N(CCO)CCO)nc(N3CCCCC3)c2n1
  A: -13	B: 10	C: 25*	D: 36*
CCn1nc(C(=O)O)c(=O)c2cc3c(cc21)OCO3
  A: 1	B: 2	C: 2	D: 2
O=C(CCCN1CC=C(n2c(=O)[nH]c3ccccc32)CC1)c1ccc(F)cc1
  A: -28	B: 3	C: 7	D: -6

# High-throughput results from PubChem.
